BJeLR viability = BJeLR cell viability loss | AID 1554 | inhibition, % (concentration not given with the values) | 300,000 compounds, 0.17% hits | BJeLR (HRASV12) viability, CellTiter-Glo ATP luminescence, 48 h; reference of the scale not given here;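 active = replicate mean above 50%; inconclusive = above 50% but judged a plate artefact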;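 also: 50 nL library stock added to about 25 µL; numbers are from one replicate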
Mtb hypoxia inh = inhibitors of hypoxia-regulated fluorescent reporter in Mycobacterium tuberculosis. fluorescence inhibition, % (no concentration beside the values). M. tuberculosis hypoxia-regulated fluorescent reporter, fluorescence. 300,000 compounds, 0.1% hits;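 active = 35 to 45% if threefold the growth effect, above 45% if 1.5-fold the growth effect; inactive = the rest, general growth blockers included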;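 also: wells of about 50 µL received 100 nL stock; 0% = vehicle wells and 100% = reference inhibitor wells; whole bacteria with a GFP reporter of the hypoxia response; strong numbers were not always called active; many hits fall short of the cut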
Sa ugtP lethal = growth inhibition of S. aureus ugtP deletion strain | S. aureus RN4220 ugtP deletion, OD600 growth, 16 h; some inactives read as strong as hits | growth inhibition, % (no concentration beside the values) | 330,000 compounds, 0.54% hits | AID 1259309;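 active = z-score under -3 and OD600 up to 0.15 on both plates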;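 also: plate controls were untreated wells for no effect and antibiotic for full effect; wells of about 80 µL received 100 nL stock; the first replicate is given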
Sa RN4220 lethal = S. aureus RN4220 growth inhibition; AID 1259311; 330,000 compounds, 0.33% hits; inhibition, % (no concentration beside the values); OD600, 16 h;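 active = z-score of -3 or lower and OD600 up to 0.18 on both plates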;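 also: plate controls were untreated cells for no effect and reference antibiotic for full effect; stock transfer was 100 nL into about 80 µL; one replicate is shown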
PrP UTR inh = suppresses PrP 5' UTR mRNA reporter expression | cell-based PrP 5' UTR mRNA reporter, plate reader | 340,000 compounds, 0.35% hits | inhibition, % (test concentration not listed);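 active = every replicate at 50% or more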;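 also: 0 = median of the neutral control wells; tested in H4 reporter cells; numbers are from one replicate; inactives centre near -14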
Autofluor counter = counter-screen for toxin protease inhibitors: compound fluorescence | AID 624483 | fluorescence intensity (test concentration not listed) | compound autofluorescence counterscreen, microsphere flow cytometry; active compounds read high | 360,000 compounds, 3.1% hits;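 active = at least 3 SD above the mean of all compounds, about 16000 in these data; inconclusive = too few beads counted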;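 also: 100 nL of 1 mM stock went into each well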
Mtb hypoxia inh growth = recorded beside Mtb hypoxia inh, whose call it bears; growth inhibition, %; measured here: M. tuberculosis growth (absorbance);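 0% = vehicle and 100% = reference antibiotic; read after six days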
* marks the source's active call; other numbers are inactive results; ? = inconclusive; nt = not tested or not shown; & = joins results of further samples. No enrichment for hits. About 4% of those tested had a hit in this group.

SMILES	BJeLR viability	Mtb hypoxia inh	Mtb hypoxia inh growth	Sa ugtP lethal	Sa RN4220 lethal	PrP UTR inh	Autofluor counter
Cc1ccc(S(=O)(=O)N/N=C\c2ccc([N+](=O)[O-])o2)cc1C	-5	nt	nt	nt	nt	-27	5398
Cc1nc(NCc2ccc(S(N)(=O)=O)cc2)c2c(C)c(C)sc2n1	-3	4	-1	8	7.1	-18	5748
COc1ccc(CN(C(C)CO)S(=O)(=O)N(Cc2ccccc2)C(CO)C(C)C)cc1 (stereo not drawn)	nt	-7	2	12	15	nt	nt
CC(=O)OC[C@H]1O[C@@H](n2ccc(=O)[nH]c2=S)C(OC(C)=O)C1OC(C)=O (stereo partly drawn)	3	2	15	3	3.8	-22	5702
O=C1C2CC=CCC2C(=O)N1c1nccs1 (stereo not drawn)	nt	5	12	1	1.2	0	3692
CCn1c(SCc2ccc(Cl)cc2)nc2nc3c(cc2c1=O)CCCC3	-13	0	6	-16	-2.1	-6	7201
CCOc1ccccc1NC(=O)CN(c1cc(C)cc(C)c1)S(=O)(=O)c1c(C)noc1C	-4	nt	nt	7	3.5	-11	5010
COc1ccc(CC2(CO)CCN(S(=O)(=O)N(C)C)CC2)cc1	6	6	2	6	4.4	-14	3470
CC(=O)Oc1ccc2c(c1)cc(C)n2C	1	8	3	10	11	-2	3236
OC(CNCc1ccccc1)c1ccccc1 (stereo not drawn)	-1	17	9	14	3.8	-15	3511
Cc1cccnc1CC(C)NC(=O)c1cc(COc2cncc(Cl)c2)on1 (stereo not drawn)	2	6	9	2	1.5	-23	4011
COc1ccccc1N(C(=O)c1snc(C(N)=O)c1N)C(C(=O)NCc1ccccc1)c1ccc(C)o1 (stereo not drawn)	-5	21	8	1	11	-9	3103
CCOC1OC(C(=O)NCc2nc3ccccc3[nH]2)=CC(c2cn(C(C)=O)c3ccccc23)C1CCCO (stereo not drawn)	nt	-5&12	4&2	-2&11	-3.0&4.3	nt	nt
CC(=O)Nc1ccc(S(=O)(=O)Nc2cccc(-c3nc4ccccc4o3)c2)cc1	1	8	0	-1	-1.9	-29	6567
CCOC(=O)c1c(NC(=O)CSc2nc3ccccc3o2)sc(C)c1C	-11	12	2	19	4.9	-20	19163*
Cc1cc2nc(-c3ccc[nH]c3=O)[nH]c2cc1C	43	3	3	3	3.9	53	3973
CC1(C)CC(=O)C(C(=O)/C=C/c2ccco2)C(=O)C1	0	2	0	-1	4.3	-13	3919
Cc1cccc(NC(=O)c2nc(-c3ccccc3)n(-c3ccccc3)n2)c1C	-1	-3	-4	21	-0.5	-14	2454
O=C(Nc1ccc2c(c1)OCCO2)C1CC1c1ccccc1 (stereo not drawn)	-18	11	-6	7	-4.3	-66	4749
Cc1cc(C)cc(NC(=O)C2CCN(S(=O)(=O)c3ccc4c(c3)NC(=O)C(C)S4)CC2)c1 (stereo not drawn)	6	0	2	-11	-6.3	-17	nt
COc1ccc(/C=N\Nc2ccc([N+](=O)[O-])cc2)c(C(=O)O)c1OC	-11	nt	nt	nt	nt	-10	4601
COc1ccccc1NCC(=O)NNC(C)C(=O)Nc1cccc(Cl)c1 (stereo not drawn)	-4	-1	8	-4	5.3	-14	3289
CS(=O)(=O)N1CCN(c2ccccc2NC(=O)CSc2ccc(Cl)cc2)CC1	-2	18	7	-13	-11	1	3594
CCN(Cc1cnn(C)c1)C(=O)c1cc(COc2cc(C)c(Cl)c(C)c2)on1	3	-4	10	-4	2.5	-29	5771
COc1ccccc1/C=C/C(=O)OCC(=O)NNC(=O)c1ccccc1	-1	10	1	6	0.6	-54	2040
CCOc1cccc2sc(N(CCN(C)C)C(=O)c3ccc4c(c3)OCCO4)nc12	-1	1	4	1	-0.3	-5	5256
CC1CCCCN1S(=O)(=O)c1ccc2c(c1)CCN2C(=O)C1CC1 (stereo not drawn)	-1	1	-4	0	2.9	4	6022
CCC(C)C(=O)Nc1nc(C)c(-c2csc(Nc3cc(Cl)ccc3OC)n2)s1 (stereo not drawn)	3	3	9	-7	-4.4	-18	3434
CC(=O)c1cccc(NC(=O)/C(=C\c2cccnc2)NC(=O)c2ccc(C)cc2)c1	-8	nt	nt	nt	nt	-11	3992
CCOC(=O)c1oc2ccccc2c1NC(=O)C(C)(C)C	-6	12	10	3	8.1	2	3468
CC(=O)Nc1nnc(SCC(=O)NCc2ccc3c(c2)OCO3)s1	1	10	-15	5	-0.4	-9	4217
Cn1ccccc1=Nc1cccc[n+]1C	nt	-2	2	-6	1.5	nt	nt
O=C(Cc1ccccc1F)N1CCN(S(=O)(=O)c2ccc(Cl)cc2)CC1	nt	1	6	1	2.1	-9	3767
O=C(O)c1ccccc1C(=O)Nc1c(-c2ccccc2)nc2ccccn12	7	4	-6	5	1.5	-10	nt
Cc1cc(C)c2nc(Cl)c(CN(Cc3ccco3)C(=O)Nc3ccccc3C)cc2c1	13	5	3	-2	3.9	-30	11369
CC(C)CN(Cc1c(O)ccc2c3c(c(=O)oc12)CCC3)CC(C)C	-11	13	7	6	9.3	-11	7812
O=C(c1ccc(Br)o1)N1CCN(Cc2ccc3c(c2)OCO3)CC1	6	nt	nt	4	1.4	17	nt
Cc1ccc(S(=O)(=O)N2CCN(C(=O)C3COc4ccccc4O3)CC2)cc1C (stereo not drawn)	5	2	-2	22	3.8	-11	19329*
O=C(CNS(=O)(=O)c1ccccc1)N1CCc2ccccc2C1	2	10	-3	5	3.7	-15	3323
Cn1cnnc1SCc1cccc(Br)c1	3	10	0	7	7.3	-105	3042
Cn1c(=O)c2c(nc(Sc3ncnn3CC(=O)NC(C)(C)C)n2C)n(C)c1=O	10	3	4	0	2.7	-23	4237
N#CCCN(Cc1ccccc1)C(=S)Nc1ccccc1	-11	6	1	5	0.7	-14	2590
N#CCN1C(=O)C(=O)N(Cc2cccc(Cl)c2)C1=O	4	-8	-8	-5	-3.1	-15	3787
COc1ccc(N(CC(=O)NCCc2ccc(Cl)cc2)S(=O)(=O)c2c(C)[nH]c(=O)[nH]c2=O)cc1	1	-12	4	-3	1.8	-24	3240
COC(=O)c1ccc(C(=O)NC(=S)Nc2ccc3nc(SC)sc3c2)cc1	-2	11	10	-14	1.6	-29	2765
CCCc1nnc(SCC(=O)NC2CCCC2)n1CCOC	12	5	-1	0	2.3	0	5532
Cc1ccc(Cc2c(C)nc3nc(SCC(=O)NCCCN4CCCCC4)nn3c2C)cc1	-1	1	-5	12	-1.1	-20	4180
COc1ccc(N2C(=O)CSC(c3ccccc3)C2=O)cc1 (stereo not drawn)	6	3	-5	8	-2.8	-5	4621
COc1ccc(CCC(=O)NNC(=O)c2ccc(F)cc2)cc1	-14	-4	8	2	4.8	-16	5206
Cc1cc2cc3c(cc2nc1SCC(=O)N1CCCC1)OCCO3	-11	10	4	-5	2.9	-6	5502
COc1ccc(-c2cnnn2-c2ccc(N)cc2)cc1OC	-14	11	8	4	5.3	nt	8334
CC(=O)Nc1ccc2c(c1)OCCOCCOc1cc(NC(C)=O)ccc1OCCO2	0	15	4	10	4.2	-37	4240
CC(C)(C)c1ccc2c(c1)OC(C(=O)NN=Cc1ccccn1)CO2 (stereo not drawn)	nt	-6	-4	0	4.8	nt	nt
CC(C(=O)Nc1cccnc1)N1C(=O)c2ccccc2C1=O (stereo not drawn)	14	8	5	11	5.3	-26	9496
COc1ccc(S(=O)(=O)NCC(c2cccnc2)N2CCN(C)CC2)cc1C (stereo not drawn)	7	-4	8	5	1.8	-12	5879
COc1ccc(CCN(C)CC(O)COC(c2ccc(F)cc2)c2ccc(F)cc2)cc1OC (stereo not drawn)	10	-4	4	13	-4.7	-3	3775
O=C(NCCc1ccccc1)c1ccc2c(c1)N(Cc1ccccc1)CCS2	5	8	4	-1	-2.2	-11	6106
COc1cccc(CN(C)C(=O)CSCC(=O)Nc2cc(C)on2)c1OC	-2	3	8	6	-0.2	-10	?
Cc1nc(C)c(-c2ccc(SCc3ccc(Cl)cc3)nn2)s1	-6	6	4	-2	3.8	-11	4952
O=C1[C@H]2[C@H](C=CC[C@H]2C(=O)N2CCN(c3ccccc3)CC2)CCN1Cc1ccccc1	-1	nt	nt	nt	nt	-25	3371

17 entries from above, with values under each structure:
Sequence of screens: BJeLR viability, Mtb hypoxia inh, Mtb hypoxia inh growth, Sa ugtP lethal, Sa RN4220 lethal, PrP UTR inh, Autofluor counter
> Cn1c(=O)c2c(nc(Sc3ncnn3CC(=O)NC(C)(C)C)n2C)n(C)c1=O
 : 10, 3, 4, 0, 2.7, -23, 4237
> N#CCCN(Cc1ccccc1)C(=S)Nc1ccccc1
 : -11, 6, 1, 5, 0.7, -14, 2590
> N#CCN1C(=O)C(=O)N(Cc2cccc(Cl)c2)C1=O
 : 4, -8, -8, -5, -3.1, -15, 3787
> COc1ccc(N(CC(=O)NCCc2ccc(Cl)cc2)S(=O)(=O)c2c(C)[nH]c(=O)[nH]c2=O)cc1
 : 1, -12, 4, -3, 1.8, -24, 3240
> COC(=O)c1ccc(C(=O)NC(=S)Nc2ccc3nc(SC)sc3c2)cc1
 : -2, 11, 10, -14, 1.6, -29, 2765
> CCCc1nnc(SCC(=O)NC2CCCC2)n1CCOC
 : 12, 5, -1, 0, 2.3, 0, 5532
> Cc1ccc(Cc2c(C)nc3nc(SCC(=O)NCCCN4CCCCC4)nn3c2C)cc1
 : -1, 1, -5, 12, -1.1, -20, 4180
> COc1ccc(N2C(=O)CSC(c3ccccc3)C2=O)cc1 (stereo not drawn)
 : 6, 3, -5, 8, -2.8, -5, 4621
> COc1ccc(CCC(=O)NNC(=O)c2ccc(F)cc2)cc1
 : -14, -4, 8, 2, 4.8, -16, 5206
> Cc1cc2cc3c(cc2nc1SCC(=O)N1CCCC1)OCCO3
 : -11, 10, 4, -5, 2.9, -6, 5502
> COc1ccc(-c2cnnn2-c2ccc(N)cc2)cc1OC
 : -14, 11, 8, 4, 5.3, nt, 8334
> CC(=O)Nc1ccc2c(c1)OCCOCCOc1cc(NC(C)=O)ccc1OCCO2
 : 0, 15, 4, 10, 4.2, -37, 4240
> CC(C)(C)c1ccc2c(c1)OC(C(=O)NN=Cc1ccccn1)CO2 (stereo not drawn)
 : nt, -6, -4, 0, 4.8, nt, nt
> CC(C(=O)Nc1cccnc1)N1C(=O)c2ccccc2C1=O (stereo not drawn)
 : 14, 8, 5, 11, 5.3, -26, 9496
> COc1ccc(S(=O)(=O)NCC(c2cccnc2)N2CCN(C)CC2)cc1C (stereo not drawn)
 : 7, -4, 8, 5, 1.8, -12, 5879
> COc1ccc(CCN(C)CC(O)COC(c2ccc(F)cc2)c2ccc(F)cc2)cc1OC (stereo not drawn)
 : 10, -4, 4, 13, -4.7, -3, 3775
> O=C(NCCc1ccccc1)c1ccc2c(c1)N(Cc1ccccc1)CCS2
 : 5, 8, 4, -1, -2.2, -11, 6106

Next results follow:
SMILES	BJeLR viability	Mtb hypoxia inh	Mtb hypoxia inh growth	Sa ugtP lethal	Sa RN4220 lethal	PrP UTR inh	Autofluor counter
COc1ccc(OC)c(C2C3=C(CC(C)(C)CC3=O)Nc3nnnn32)c1 (stereo not drawn)	-7	3	5	2	4.7	-1	2050
CCOc1ccc(C=Nc2cccc3ncccc23)cc1	-8	-9	-1	-5	-2.4	-14	2192
NCCCCCc1nnc(SCc2cccc(Cl)c2)o1	12	4	15	0	2.2	2	5836
COc1ccc(CNc2oc(-c3cccc4ccccc34)nc2P(=O)(OC)OC)cc1	3	-3	8	-6	1.6	-62	4318
CC1CCCCN1CCCNc1ccc(C(CC(N)=O)NC(=O)Cc2cccc3ccccc23)cc1[N+](=O)[O-] (stereo not drawn)	4	10	6	10	8.0	-20	4053
O=C(CCSCCC(=O)Nc1ccccc1F)Nc1ccccc1F	7	3	4	4	0.2	-28	2760
